Screens (PubChem)
H5N1 CPE – MDCK cell protection from H5N1 avian flu. cytopathic effect, luminescence, 72 h; active compounds read high; no value below 0 was filed and about half of the inactive calls have no number; reference of the scale not given here. inhibition, % at 50 µM. hit rate 0.07% among 96,000. AID 740; in the data active means inhibition above about 25%
The depositor's hits bear a star; i = inactive. The list is partial (hit frequency here may not be typical).

The opening three records, ahead of the listing:
No.	Compound	H5N1 CPE
1	O=C(Nc1ccc(Br)cc1F)c1sccc1-n1cccc1	i
2	Cc1sc(-c2ccncc2)nc1OC(=O)c1ccc(Cl)cc1	i
3	Cc1ccc(Cn2ncc3c(N4CCN(Cc5ccc(Cl)cc5)CC4)ncnc32)cc1	i

The whole of this part, from the start:
No.	Compound	H5N1 CPE
1	O=C(Nc1ccc(Br)cc1F)c1sccc1-n1cccc1	i
2	Cc1sc(-c2ccncc2)nc1OC(=O)c1ccc(Cl)cc1	i
3	Cc1ccc(Cn2ncc3c(N4CCN(Cc5ccc(Cl)cc5)CC4)ncnc32)cc1	i
4	COc1cc2c(C(=O)N3CCN(c4ccccc4C)CC3)c(C)oc2cc1Br	i
5	CCN1CCN(C(c2cc3cccc(C)c3[nH]c2=O)c2nnnn2Cc2ccccc2)CC1 (stereo unspecified)	0.9
6	O=C(NCCc1ccccc1)C1CCCN1C(=O)Nc1ccc(F)cc1 (stereo unspecified)	i
7	COc1cccc(-c2nn(C)c3sc(C(=O)NCc4ccco4)cc23)c1	i
8	O=C(CCCn1c(=S)[nH]c2ccsc2c1=O)NCc1ccco1	1.1

No.	Compound	H5N1 CPE
9	CCn1c(SCc2ccc(C)cc2)nnc1C1CCN(S(=O)(=O)c2ccc(OC)cc2)CC1	0.8
10	COC(=O)c1ccc(-n2nnnc2SCC(=O)Nc2cc(OC)ccc2OC)cc1	1.5
11	CC(=O)c1ccc2c(ccc3ccccc32)c1	0.6
12	CCCCNC(=O)c1c(C)cc(=O)oc1C	i
13	O=C(Cc1cccs1)Nc1ccon1	i
14	O=S(=O)(c1ccc(S(=O)(=O)N2CCCN(Cc3ccccc3)C2)cc1)N1CCCCCC1	i
15	CC(C)(C)OC(=O)N[C@@H](Cc1ccccc1)c1nnc(SCC(=O)c2ccc(Cl)cc2)o1	1.3
16	CCOc1ccc(C(=O)N2CCN(C(=O)c3ccco3)CC2)cc1OCC	1.1

No.	Compound	H5N1 CPE
17	CCN(CC(=O)NCCc1ccccc1)S(=O)(=O)c1ccc(Br)cc1	0.1
18	COCCOCC(O)CN1CCN(c2ccccc2)CC1 (stereo unspecified)	i
19	Cc1ccc(CCNC(=O)CCNS(=O)(=O)c2ccc3c(c2)c(=O)n(C)c(=O)n3C)cc1	2.0
20	CCC(=O)Nc1nc2nc(-c3ccccc3)cc(-c3ccccc3)n2n1	i
21	O=C(c1ccc(COc2ccc3ccccc3c2)o1)N1N=C(C(F)F)CC1(O)C(F)F (stereo unspecified)	2.7
22	COc1ccc(-c2ccc(-c3noc(-c4ccccc4C)n3)c(OC)n2)cc1	i
23	O=C(NC(Cc1ccccc1)C(=O)NCc1ccccn1)c1ccco1 (stereo unspecified)	0.6
24	O=C(CCCCn1c(=O)c2ccccc2n(Cc2ccc(Cl)cc2)c1=O)NCc1ccco1	i

No.	Compound	H5N1 CPE
25	COc1ccc(OC)c(C2C(C(=O)N(C)C)=C(C)Nc3nc4ccccc4n32)c1 (stereo unspecified)	0.3
26	CCCCn1c(Cl)nc2c1c(=O)n(C)c(=O)n2C	i
27	O=c1c2ccccc2nc(/C=C/c2ccc([N+](=O)[O-])o2)n1CCCO	i
28	COc1ccc(Br)cc1-c1nc(C)c(C(C)=O)n1O	0.2
29	O=C(Nc1ccc(N2CCOCC2)cc1)Nc1ccc2nc(-c3ccco3)c(-c3ccco3)nc2c1	i
30	O=S(=O)(c1cccc2cccnc12)N1CCOCC1	0.9
31	CCn1nccc1C(=O)NC1=C(C#N)CCC1	i
32	Cc1c(CN(C)C(=O)CSc2nc(-c3ccco3)cc(C(F)(F)F)n2)cnn1C	1.6

No.	Compound	H5N1 CPE
33	O=C(N/N=C/c1cccc(C(F)(F)F)c1)C1CCN(c2ncc(C(F)(F)F)cc2Cl)CC1	i
34	CCOc1ccc(S(=O)(=O)Nc2nc3cc(OC)ccc3s2)cc1	0.1
35	C=CCc1c(C)nc(C)nc1N/N=C/c1ccc(N(C)C)cc1	i
36	CC(NC(=O)Nc1nnc(C(F)(F)F)s1)(C(F)(F)F)C(F)(F)F	1.8
37	O=C(CSc1nnc(-c2ccncc2)n1Cc1ccccc1)NCCc1ccccc1	0.8
38	CO/N=C/c1ccc(N2CCN(C(=O)c3ccc(Cl)cc3Cl)CC2)c([N+](=O)[O-])c1	i
39	CC(=O)N(CCCCN1C(=O)c2ccccc2C1=O)c1ccc(C)cc1	2.0
40	Cc1cc(NC(=O)c2c(F)cccc2Cl)n(-c2nc3ccccc3[nH]2)n1	i

No.	Compound	H5N1 CPE
41	CC(=O)NCCn1c(SCC(=O)c2ccc(Cl)cc2)nc2ccccc2c1=O	1.6
42	O=C1NCCN1C(=O)c1cccc(Cl)c1	0.4
43	COc1ccc(CN(C(=O)c2cccs2)c2nccs2)cc1OC	0.8
44	CC(C)CC(=O)Nc1cccc(-c2nc3ccccc3o2)c1	0.1
45	O=C(Oc1ccc(/C=N/NC(=O)c2ccccc2O)cc1)c1ccccc1	i
46	CCn1c(CC(C)C)n[nH]c1=S	0.4
47	CCOc1ccc(Nc2oc(-c3ccc(Cl)cc3)nc2C#N)cc1	i
48	COc1ccc(N2C(=O)CC(Nc3ccc(C)cc3)C2=O)cc1 (stereo unspecified)	0.2

No.	Compound	H5N1 CPE
49	Cc1nn(CC(=O)Nc2sc3c(c2C#N)CCC(C(C)(C)C)C3)c(C)c1[N+](=O)[O-] (stereo unspecified)	3.8
50	CC1CC(N(C(=O)c2ccco2)c2ccccc2)c2ccccc2N1 (stereo unspecified)	2.1
51	COCC(C)n1c(COc2ccccc2F)nnc1SCc1c(C)noc1C (stereo unspecified)	0.1
52	CCOc1ccc(OCCCCN2CCCC2)cc1	i
53	CN(C)c1ccc(/C=N/NC(=O)CN(c2cccc(Cl)c2)S(C)(=O)=O)cc1Br	i
54	COC(=O)c1c(-c2ccncc2)csc1NC(=O)c1ccoc1C	0.7
55	C=CCn1c(COc2ccccc2)nnc1SCC(=O)Nc1ccc2c(c1)OCCO2	0.6
56	Cc1cccc(C)c1OCC(=O)N/N=C/c1ccc2c(c1)OCO2	0.6

No.	Compound	H5N1 CPE
57	CCOC(=O)c1cnn(-c2cc(C)nc3c(-c4ccc(Cl)cc4)c(C)nn23)c1N	i
58	CCC(=O)Nc1nc2ccccc2n1CCN(CC)CC	i
59	Oc1ccc(Cl)cc1-c1cc(-c2ccccc2)n[nH]1	9.1
60	CCOC(=O)Nc1cc(C(=O)OCC)c(C)nc1C	i
61	Cc1nc(N2CCOCC2)[nH]c(=O)c1CCC(C)C	0.5
62	Cn1c(=O)c(C(=O)Nc2ncccc2O)c(O)c2ccccc21	1.2
63	COC(=O)c1cn(CC(=O)NCc2ccco2)c2ccccc12	1.8
64	COC(=O)c1cc2ccccc2c(=O)s1	i

No.	Compound	H5N1 CPE
65	O=C(c1ccccc1C(=O)N1CCN(c2ccc(F)cc2)CC1)N1CCN(c2ccc(F)cc2)CC1	i
66	O=C(OCC(=O)N1CCN(C(=O)c2ccco2)CC1)c1ccccc1C(=O)c1ccccc1	i
67	N/C(=N\OC(=O)c1ccc(Cl)c(Cl)c1)c1ccccn1	0.1
68	CC(C)CC(=O)Nc1ccc2oc(-c3ccncc3)nc2c1	i
69	CS(=O)(=O)N(Cc1ccccc1)c1ccc(C(=O)NCc2ccccc2)cc1	0.1
70	CCOC(=O)CSc1ncc(OC)c(=O)[nH]1	i
71	Cc1ccc(S(=O)(=O)Nc2ccc(S(=O)(=O)NC(C)(C)C)cc2)cc1	0.8
72	COc1ccc(-c2noc(CCCOc3ccc(Cl)cc3Cl)n2)cc1	1.5

No.	Compound	H5N1 CPE
73	COc1ccc(-n2nc(C(=O)N3CCCCC3)c3ccccc3c2=O)cc1	i
74	COc1cc(OC)c(Nc2cc(C)nc3nc(C)nn23)cc1Cl	0.2
75	Cc1csc(NC(=O)c2ccco2)n1	0.1
76	COc1ccc2cc(C(=O)NCc3ccco3)c(=O)oc2c1	i
77	COc1cccc(OCC(O)CN2CCC(Cc3ccccc3)CC2)c1 (stereo unspecified)	i
78	CC(=Nc1ccc(C)c(C)c1)C1=C(O)CCC1=O	i
79	Cc1ccc(S(=O)(=O)/N=C(\Sc2ccccc2)c2ccccc2)cc1	2.2
80	O=[N+]([O-])c1cc(/C=N\Nc2nccs2)ccc1O	0.2

No.	Compound	H5N1 CPE
81	CCOc1cc(C2NC(=O)NC(O)(C(F)(F)F)C2C(=O)c2ccc(Cl)cc2)ccc1O (stereo unspecified)	i
82	COc1cccc(Cn2nnc(C(=O)NCCc3ccc(Cl)cc3)c2N)c1	i
83	O=C(CSC1CCCCC1)Nc1nccs1	0.2
84	CC(=O)C(N=Nc1ccccc1)(Sc1nnc(-c2ccccc2)n1-c1ccccc1)C(C)=O	1.2
85	Cc1cccc(N2CCN(C(=O)CCn3c(=O)[nH]c4ccccc4c3=O)CC2)c1C	0.7
86	S=C(Nc1ccccc1)Nc1ccc(OCc2ccc(Cl)cc2Cl)cc1	i
87	CN(c1ccc(OCc2nnc(-c3ccccc3)o2)cc1)S(=O)(=O)c1ccccc1	1.4
88	CCn1c(SCC(=O)Nc2nc(-c3ccc(C)cc3)cs2)nnc1-c1ccccc1O	2.9

No.	Compound	H5N1 CPE
89	COC(=O)C(NC(=O)c1ccccc1)=C(C)C	0.1
90	Cn1cnnc1SC(C(=O)Nc1cccc(C(F)(F)F)c1)c1ccccc1 (stereo unspecified)	0.6
91	N#Cc1cc2c([nH]c1=S)CCCCCC2	1.1
92	COCCCNC(=O)c1ccc(N(C)S(C)(=O)=O)cc1	0.2
93	COC(=O)c1cc(-c2ccc(OC)c(OC)c2)n[nH]1	0.5
94	CCO/C(C)=C1\C(=O)Nc2ccccc21	0.4
95	CCOC(=O)C1CCN(S(=O)(=O)Cc2ccccc2)C1=O (stereo unspecified)	0.4
96	O=C(Nc1cccc(Cl)c1)C1CCCN(S(=O)(=O)c2ccc(F)cc2)C1 (stereo unspecified)	2.5

No.	Compound	H5N1 CPE
97	Cc1c(NC(=O)CCC2CCCCC2)c(=O)n(-c2ccccc2)n1C	i
98	OCC12CO[C@@H]3c4ccccc4[C@H](OC1)N32 (stereo partly specified)	0.2
99	Cc1cccc(C)c1OCC(=O)NCc1nnc(SCC(=O)NC2CCCCC2C)n1C (stereo unspecified)	i
100	CC(=O)N1CCc2c(sc(NC(=O)C3CC3)c2-c2nc3ccccc3s2)C1	i
101	Cc1nc(SC2CCOC2=O)c2c(C)c(C)sc2n1 (stereo unspecified)	i
102	COc1ccc(C(=O)Nc2ccc(C)cn2)c(OC)c1	i
103	CCc1ccc(C(C)NC(=O)/C=C/c2ccc(Br)cc2)cc1 (stereo unspecified)	1.4
104	c1ccc2c(c1)CCN2CCN1CCc2ccccc21	1.0

No.	Compound	H5N1 CPE
105	COc1ccc(C(=O)NCc2nnc(SCC(=O)NCc3ccc(F)cc3)o2)cc1	i
106	Cc1cccc(OCC(=O)NCc2ccncc2)c1C	0.4
107	COc1ccc(N2CC(=O)N(c3ccc(OC)c(OC)c3)CC2=O)cc1OC	i
108	CCCCn1c(O)c(C(C)=NCc2ccc(F)cc2)c(=O)[nH]c1=O	i
109	CCOC(=O)c1nn(-c2ccc(F)cc2)c(-c2ccccc2)c1C(=O)c1ccccc1	0.1
110	O=C(Nc1nc(-c2cc3ccccc3oc2=O)cs1)c1ccco1	i
111	C[N+]12CN3CN(CN(C3)C1)C2	i
112	CN(Cc1ccccc1)S(=O)(=O)c1ccc(NC(=S)NC(=O)C2CCCC2)cc1	0.2

No.	Compound	H5N1 CPE
113	CCOC(=O)CSc1nnc(NC(=O)c2cccc(S(=O)(=O)N3CCCCCC3)c2)s1	1.2
114	O=C(CN1C(=O)CN=C(c2ccccc2Cl)c2cc(Cl)ccc21)NCc1ccco1	0.1
115	COc1ccc(CCNC(=O)c2ccc(CNc3c(N4CCOCC4)c(=O)c3=O)cc2)cc1OC	i
116	O=C(NCc1ccc2c(c1)OCO2)c1ccc(Cl)c(S(=O)(=O)N2CCOCC2)c1	0.5
117	O=C(COc1ccc2ccccc2c1Br)N1CCOCC1	1.3
118	CN(Cc1c(O)ccc2c1oc(=O)c1ccccc12)C1CCCCC1	i
119	CCCCOCCCn1cnc2c([nH]c3cc(OC)ccc32)c1=O	0.6
120	CCCCCCCN1N=C(C)C(C(=O)c2ccccc2)C1=O (stereo unspecified)	i

No.	Compound	H5N1 CPE
121	O=C(NCCCn1ccnc1)c1ccc(Br)c(S(=O)(=O)N2CCOCC2)c1	0.9
122	C=CCSc1nnc2c(n1)OC(c1cccnc1)Nc1ccccc1-2 (stereo unspecified)	1.3
123	CC(NC(=O)C(C)(C)C)c1nc2ccccc2n1C (stereo unspecified)	0.6
124	COc1cc(/C=N/N=C(/N)c2nonc2N)cc(Br)c1OCc1ccccc1C	i
125	CN1CCN(CCCNC(=O)CCCOc2cc(=O)n(C)c3ccccc23)CC1	0.3
126	CC1CCCC(C)N1C(=O)CSc1nnnn1Cc1ccccc1 (stereo unspecified)	0.2
127	CN(C)S(=O)(=O)Nc1ccc(C(=O)O)cc1	1.0
128	Cc1ccccc1NS(=O)(=O)c1ccc(OCC(=O)N2CCCC2)cc1	i

4 entries from above, field by field.
112. CN(Cc1ccccc1)S(=O)(=O)c1ccc(NC(=S)NC(=O)C2CCCC2)cc1
  H5N1 CPE: 0.2
113. CCOC(=O)CSc1nnc(NC(=O)c2cccc(S(=O)(=O)N3CCCCCC3)c2)s1
  H5N1 CPE: 1.2
114. O=C(CN1C(=O)CN=C(c2ccccc2Cl)c2cc(Cl)ccc21)NCc1ccco1
  H5N1 CPE: 0.1
115. COc1ccc(CCNC(=O)c2ccc(CNc3c(N4CCOCC4)c(=O)c3=O)cc2)cc1OC
  H5N1 CPE: i

Continued.
No.	Compound	H5N1 CPE
129	Cc1onc(-c2ccccc2)c1C(=O)Nc1ccc(N2CCOCC2)cc1	i
130	Cc1[nH]nc2cn[nH]c12	0.6
131	CCc1nc(N2CCCC2)c(C#N)c2c1CCCC2	1.1
132	Cc1nc2ncnn2c(C)c1CCC(=O)N1CCc2ccccc2C1	1.7
133	Nc1nc2nc(-c3ccccc3)cc(=O)n2[nH]1	i
134	COC(=O)C1=C(C)NC(C)=C(C(=O)OC)C1c1ccc(OC(=O)c2ccco2)cc1	i
